HCMV NEC inh: disrupts HCMV UL50-UL53 complex binding; AID 1918969; actives 0.15% (n = 190,000); inhibition, % (concentration not given with the values); HTRF UL50-UL53 interaction, normalized percent inhibition;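 active = both replicates at 50% or more, plus weaker picks with an unusually low signal ratio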;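 note: stock transfer was 100 nL into about 20 µL; 0% = negative control wells and 100% = wells with untagged competitor protein; inactives centre near -12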
Numbers without * were called inactive; & = joins results of further samples. The list is partial; rates above refer to the full screens.

SMILES | HCMV NEC inh
[O-]/[N+](=C\c1ccc(F)cc1)c1ccc(Cl)cc1 | -9
CC(C)CC(C=O)NC(=O)C(CC(C)C)NC(=O)C(CC(C)C)NC(=O)OCc1ccccc1 (stereo not given) | 2
COc1ccc(N2C(=O)CSC2c2cccc(OC)c2OC)cc1Cl (stereo not given) | 2
O=C(/C=C/c1cccs1)Nc1ccc(-c2nc3ccccc3[nH]2)cc1 | 2
CCC(=O)N(CC)c1cc(C)ccc1OC1(C(=O)O)CCSCC1 | -7
CCCCC1C(=O)N(C)CCN1C(=O)Nc1nnc(C(C)(C)C)s1 (stereo not given) | 5
CNC(=O)C12CC3(C)CC(C)(CC(C)(C3)C1)C2 | 18&-14
Nc1ccccc1S(N)(=O)=O | -28
Cn1c(P(=O)(O)c2ccccc2)nc2ccccc21 | -8
COC(=O)c1sc2ccccc2c1NC(=O)c1cc(Cl)sc1Cl | -3
O=C(NCCn1ccc2ccccc21)C1CCCC1 | -13
O=C(Nc1nnc(-c2ccc3c(c2)CCCC3)o1)c1ccccc1 | 4
O=C1C(Nc2ccccc2)=CC(=O)c2ncccc21 | -58&-58&-8
Cc1ccc(C)c(-c2csc(N)n2)c1 | -26
CCN(c1ccccc1)c1cc(NC)[n+](C)c(C)n1 | 3
CSc1nnc(NC(=O)C(C)C)s1 | -19
O=C(Nc1c2c(nn1-c1cccc(Cl)c1)CS(=O)C2)c1cccc(C(F)(F)F)c1 (stereo not given) | 10
COc1ccc(N2C(=O)N(Cc3ccccc3)c3ccccc3S2(=O)=O)cc1 | -3
O=C(CCCN1C(=O)/C(=C\c2ccco2)SC1=S)Nc1ccc(Cl)cc1 | -14
Cc1ccc(C)n1-n1cnc2scc(-c3ccc(F)cc3)c2c1=O | -2
N#Cc1cc2c(OCC(O)CN3CCN(C(c4ccccc4)c4ccccc4)CC3)cccc2[nH]1 (stereo not given) | -8
CSc1cccc(-n2cc3ccsc3c2)c1 | -7
CCCCC/C=C\C/C=C\CC/C=C\CCCC(=O)OC | -28&-28
O=C(CSc1cnc2ccccc2n1)Nc1ccc(F)cc1 | -16
COCC(C)n1c(=O)c2ccccc2c2ccccc2c1=O (stereo not given) | -2

Following part:
SMILES | HCMV NEC inh
COc1cccc2c1C(=O)c1c(O)c3c(c(O)c1C2=O)C[C@@](O)(C(=O)CO)CC3OC1CC(N)C(O)C(C)O1 (stereo not given in full) | -163&-131
COc1ccccc1/C=C1\SC(=S)N(CCC(=O)Nc2nccs2)C1=O | 10
O=C(CSc1nnc(Cc2ccccc2)o1)N1CCN(c2ccccc2)CC1 | 7
O=C(/C=C/c1ccc(O)c(O)c1)O[C@H](Cc1ccc(O)c(O)c1)C(=O)O | -70&-18&-18
CCn1ncc2[nH]c(-c3c(OC)ccc4ccccc34)nc21 | -62
CCN(CC)C(=O)[C@]1(c2ccccc2)CC1CN (stereo not given in full) | -8&-77
Clc1ccc(-n2ncc3c(Nc4ccccc4)ncnc32)cc1 | -13
Cn1c(=O)cc(N2CCCC(N)C2)n(Cc2cc(F)ccc2C#N)c1=O (stereo not given) | 0
COc1cc2c(cc1OC)C(COc1ccccc1OC)N(C(C)=O)CC2 (stereo not given) | -9
OCc1nc2ccccc2n1CCCOc1ccccc1 | -6
NC(=O)c1ccsc1NC(=O)c1ccccc1 | 4&3
O=S(=O)(Nc1cc(Cl)ccc1Cl)c1cccs1 | 10&-1
CCOc1ccccc1-n1c(O)c(/C=C2\C=Nc3ccccc32)sc1=S | 0
COC(=O)CNC(=O)c1cn(-c2ccccc2)nc1-c1ccc(F)cc1 | -9
Cc1cc(C)nc(SCC(CSc2nc(C)cc(C)n2)C(=O)O)n1 | -2
O=C(c1ccc(Br)cc1)N(Cc1ccco1)C1CCS(=O)(=O)C1 (stereo not given) | 1
COc1cc2ncnc(-n3nc(-c4ccccn4)nc3N)c2cc1OC | -10&-7&0&-2
O=C(O)C1CCCCN1S(=O)(=O)c1ccccc1 (stereo not given) | -23
CCOC(=O)C1CCN(C(=O)c2cc(-c3ccccc3)n[nH]2)CC1 | -8
N#CC1=C(SCC(=O)NC2CC2)NC2=C(C(=O)CCC2)C1c1ccco1 (stereo not given) | -32
O/N=C/c1c(-c2ccccc2)nc2sccn12 | -27
O=C(CSc1c[nH]c2ccccc12)NCc1ccccc1 | -6
Cc1ccn(CCN2CCC(Oc3cccc(Cl)c3)CC2)n1 | 6
Nc1c(-c2ccc(F)cc2)cnc2ncnn12 | -9
CCCCC[C@H](O)/C=C/[C@@H]1[C@@H](C/C=C\CCCC(=O)OCC(O)CO)[C@@H](O)C[C@H]1O (stereo not given in full) | -20&-20

An excerpt of these results, comma-delimited:
canonical_smiles,HCMV NEC inh
COc1cccc2c1C(=O)c1c(O)c3c(c(O)c1C2=O)C[C@@](O)(C(=O)CO)CC3OC1CC(N)C(O)C(C)O1 (stereo not given in full),-163&-131
COc1ccccc1/C=C1\SC(=S)N(CCC(=O)Nc2nccs2)C1=O,10
O=C(CSc1nnc(Cc2ccccc2)o1)N1CCN(c2ccccc2)CC1,7
O=C(/C=C/c1ccc(O)c(O)c1)O[C@H](Cc1ccc(O)c(O)c1)C(=O)O,-70&-18&-18
CCn1ncc2[nH]c(-c3c(OC)ccc4ccccc34)nc21,-62
CCN(CC)C(=O)[C@]1(c2ccccc2)CC1CN (stereo not given in full),-8&-77
Clc1ccc(-n2ncc3c(Nc4ccccc4)ncnc32)cc1,-13
Cn1c(=O)cc(N2CCCC(N)C2)n(Cc2cc(F)ccc2C#N)c1=O (stereo not given),0
COc1cc2c(cc1OC)C(COc1ccccc1OC)N(C(C)=O)CC2 (stereo not given),-9
OCc1nc2ccccc2n1CCCOc1ccccc1,-6
NC(=O)c1ccsc1NC(=O)c1ccccc1,4&3
O=S(=O)(Nc1cc(Cl)ccc1Cl)c1cccs1,10&-1
CCOc1ccccc1-n1c(O)c(/C=C2\C=Nc3ccccc32)sc1=S,0
COC(=O)CNC(=O)c1cn(-c2ccccc2)nc1-c1ccc(F)cc1,-9
Cc1cc(C)nc(SCC(CSc2nc(C)cc(C)n2)C(=O)O)n1,-2
O=C(c1ccc(Br)cc1)N(Cc1ccco1)C1CCS(=O)(=O)C1 (stereo not given),1
COc1cc2ncnc(-n3nc(-c4ccccn4)nc3N)c2cc1OC,-10&-7&0&-2
O=C(O)C1CCCCN1S(=O)(=O)c1ccccc1 (stereo not given),-23

Continuation.
SMILES | HCMV NEC inh
O=C1CN(C(=O)Nc2nncs2)CCN1Cc1cccc(F)c1 | 35&35
CCN1C(=O)CC(c2cc(OC)c(OC)c(OC)c2)Sc2ccccc21 (stereo not given) | -21
CN(C)C(=O)C12CC3(C)CC(C)(CC(C)(C3)C1)C2 | 4&-12
O=C(Cc1ccc2c(c1)OCCCO2)c1ccc(O)cc1O | -24
CC#CCC(C)[C@@H](O)/C=C/[C@@H]1[C@H]2C/C(=C\CCCC(=O)O)C[C@H]2C[C@H]1O (stereo not given in full) | -27&-27
CCc1ccc(C(N)CC(=O)O)cc1 (stereo not given) | -4
COC(=O)c1ccc(COc2cc3oc(=O)cc(C)c3cc2Cl)cc1 | -3
CN1CCN(c2ccc3cc(Cl)ccc3n2)CC1=O | -14
O=C(Nc1nc2c(s1)Cc1ccccc1-2)C1=COCCO1 | 0
CSC1=C(C#N)C(c2ccccc2Cl)C(C(=O)c2cccs2)C(O)(C(F)(F)F)N1 (stereo not given) | 4
CC(/C=C1\SC(=S)N(CC(=O)N2CCN(c3ccccc3)CC2)C1=O)=C\c1ccccc1 | -9
COC(=O)c1cc(C)nc(Sc2ccccc2NC(C)=O)n1 | -10
COC(=O)CCN1CC(OCc2ccncc2)CN(C(=O)Cc2c(F)cccc2Cl)CC1=O (stereo not given) | -4
O=C(c1ccc(F)cc1)N1CCCC2C=CC=CC21 (stereo not given) | -11
COc1ccccc1N1CCN(CCN2C(=O)c3ccccc3C(C)(C)C2=O)CC1 | 0
COCc1cc(Cl)nc2cc(NC(=O)C(F)(F)F)c(C)cc12 | -7
CC(C)CC1(CO)CCCN(C(=O)c2cccc(C#CC(C)(C)O)c2)C1 (stereo not given) | -3
O=S1(=O)CCN(C(CCO)c2cccc(C(F)(F)F)c2)CC1 (stereo not given) | -6
O=C(O)CCCCc1nc2ccccc2s1 | -17
COc1ccc(C(=O)Cc2cnn(-c3ccccc3)c2)c(O)c1 | -28
COC(=O)c1ccc(C(=O)Nc2ccc3c(c2)nc(C)n3-c2ccccc2)cc1 | 4
Cc1cc2cc(CNC(=O)c3ccco3)ccc2n1C | -5
CCNC(=O)CCCC=CCC1C(O)CC(O)C1C=CC(O)CCc1ccccc1 (stereo not given) | -12
CCCCCCCCCCCCCCCCCC(=O)OCC | -6&-6
CN(Cc1nc(-c2ccccc2)cs1)C1CCc2c(c(C(=O)N3CCSCC3)nn2C)C1 (stereo not given) | -2

(further entries)
SMILES | HCMV NEC inh
CC(C)CCCCCCC/C=C\C(=O)O | -11&-11
CCOc1ccccc1NC(=O)c1cc2cc(Br)ccc2oc1=O | -12
CCOc1ccc(N(C(C)=O)C2C=CS(=O)(=O)C2)cc1 (stereo not given) | -9
O=C(Nc1ccncc1)c1ccc2c(c1)OCCO2 | -2
CC(=O)c1sc(Nc2ccccc2)nc1C | -82
CN(CC1COCCO1)S(=O)(=O)Nc1ccc2ccc3ncc(-c4cnn(C)c4)cc3c(=O)c2c1 (stereo not given) | -119
Cc1ccc(C(=O)NCc2ccc3c(c2)OCO3)cc1C | -6
CCc1cc(-c2[nH]ncc2-c2ccc3c(c2)OCCO3)c(O)cc1O | 6
COc1ccc(S(=O)(=O)N2CCC(C)CC2)cc1C(=O)O | -12
CN(C)CCC(CSc1ccccc1)Nc1ccc(S(=O)(=O)NC(=O)c2ccc(N3CCN(Cc4ccccc4-c4ccc(Cl)cc4)CC3)cc2)cc1[N+](=O)[O-] (stereo not given) | -12&17&12&20
O=C(C=Cc1ccc(O)c(O)c1)c1ccc(O)cc1O | -20
c1ccc(C2NNCC2c2ccnc3ccccc23)nc1 (stereo not given) | -6
Cc1oc(=O)oc1CN1CCN(c2cc3c(cc2F)c(=O)c(C(=O)O)c2n3C(C)C2)CC1 (stereo not given) | -57
CC(NC(=O)c1c(F)cccc1F)C(c1cccs1)N1CCOCC1 (stereo not given) | 4
Cn1cc(/C=C/C(=O)N2CCc3[nH]nc(-c4ccccc4F)c3C2)cn1 | 43&43
O=C1CN(c2ccc(Br)cc2)S(=O)(=O)c2ccccc2N1 | 2
CCCc1cc(=O)oc2cc(OCC(=O)O)ccc12 | -13
Cn1cnnc1SC1CCCCC1NS(=O)(=O)c1ccccc1 (stereo not given) | 0
COc1ccc(C(=O)N2CCN3C(=O)[C@H](COCc4ccccc4)NC(=O)[C@H]3C2)cc1 | -3
COc1ccc(OC)c(S(=O)(=O)N2C(C)CCCC2C)c1 (stereo not given) | 3
O=C1C2C3C=CC(C3)C2C(=O)N1c1ccccn1 (stereo not given) | -1
CCS(=O)(=O)N1CCN=C1SCc1ccc(C(F)(F)F)cc1 | -7
Cn1cccc1Cc1nnc(SCC(=O)Nc2ccccc2)n1C | 12
COc1ccc([C@@H]2CC(=O)c3c(O)cc(O)cc3O2)cc1O | -11&-11&-23
O=C1Nc2ccc(I)cc2C1=Cc1cc(Br)c(O)c(Br)c1 | -33&-15&-20&-23&-53&-5

Next entries:
SMILES | HCMV NEC inh
c1csc(-c2cn3ccsc3n2)c1 | 3&-8
COCC1CCCN(Cc2cccc(-c3nc(-c4cccnc4)cc(=O)[nH]3)c2)C1 (stereo not given) | -16&-16
Brc1ccc(OCc2cn3cccnc3n2)c(Br)c1 | 3
CC(=O)c1ccc2c(c1)N(CCCN1CCC(CCO)CC1)c1ccccc1S2 | -30
Cc1cccc(NC(=O)CSc2nccn2-c2ccccc2)c1 | -21
NS(=O)(=O)c1cc2c(cc1Cl)NC(CC1CCCC1)NS2(=O)=O (stereo not given) | -25
CC(=O)N[C@@H](CC(=O)O)C(=O)O | -5
COCCn1c(SCc2ccccc2)nnc1-c1c[nH]c2ccccc12 | -16
O=C1NC(=Nc2cccnc2)S/C1=C/c1ccc2c(c1)OCO2 | 4
O=C(O)/C=C/C(=O)NC1CCCC(C(F)(F)F)C1 (stereo not given) | -13
Cc1ccc(C)n1CCN1CCN(C(=O)c2ccco2)CC1 | -7
CC(C)(C)C(=O)Nc1ccc(O)c(-c2nc3ccccc3s2)c1 | -13
COc1ccc(OC)c(-c2nnc(NC(=O)Cc3cccs3)s2)c1 | 2
COc1ccc(NS(=O)(=O)c2ccccc2)cc1 | -8
O=C(Cc1ncc(C(F)(F)F)cc1Cl)NCc1ccco1 | -8
O=C(c1ccc(-c2nc3ccccc3s2)s1)N1CCOCC1 | -44
Cc1cc2ccccc2nc1-c1ccc(F)cc1 | -7
O=c1c(Oc2ccccc2)c(C(F)(F)F)oc2cc(O)ccc12 | 0
Cc1cc2nc3c(=O)[nH]c(=O)nc-3n(C)c2cc1C=O | 34
COc1ccc(C(=O)c2oc3ccccc3c2NC(=O)c2ccco2)cc1 | -11
Cc1oc2ccc(NS(=O)(=O)c3cccs3)cc2c1C(=O)OC(C)C | 15&-4
FC(F)(F)Oc1ccc(-n2cc3ccsc3c2)cc1 | -1
CCCCC/C=C\C/C=C\C/C=C\C/C=C\CCCC(=O)OC(CO)CO | -4&-4&-9
ICC1COC[N+]12CCOCC2 (stereo not given) | 7
O=c1cc(CSc2ccccn2)c2ccc(O)cc2o1 | -48

Next section:
SMILES | HCMV NEC inh
COc1ccc(C2=CCCC2)cc1 | -8
O=C1CN(S(=O)(=O)c2ccccc2)c2ccccc2N1 | -5
CN(C)c1ccc(C(=O)NCCCCCCC(=O)NO)cc1 | 13&-13&-13
CNc1nnc(CSc2nc(C)cc(C)n2)s1 | -9
CCOC(=O)c1c(NC(=O)CCC(=O)OC)sc2c1CCC2 | -9
CCN(c1ccccc1)c1ncnc2c1cnn2-c1ccccc1 | -16
CCCNC(C)(C)COC(=O)c1ccccc1 | -29
NC(=NC(=O)c1cccc(Cn2cc(C(F)(F)F)ccc2=O)c1)c1ccc(Cl)cc1 | -11
CC(C)c1nc2ccccc2n1Cc1ccccc1 | 4
COc1cccc2c1C(=O)c1c(O)c3c(c(O)c1C2=O)C[C@@](O)(C(=O)CO)C[C@@H]3OC1CC(N)C(OC2CCCCO2)C(C)O1 (stereo not given in full) | -83
CCN1CCN(Cc2ccc(NC(=O)c3cc(NC(=O)c4cncc(-c5cccs5)c4)cc(OC)c3)cc2C(F)(F)F)CC1 | -7
CCc1ccccc1NC(=O)c1cc(=O)c2ccccc2o1 | -35

Compound activity: PubChem BioAssay, ICCB-Longwood Screening Facility, Harvard Medical School
